VDR inhibitor: inhibitors of human vitamin D receptor. VDR-SRC2-3 peptide fluorescence polarization, 2 h. 400,000 tested, 0.93% active. P11473. Potency, µM, for the others: max response, negative = inhibition, actives largely listed as inhibitors. AID 504847; active = well fitted inhibition curve with a large enough effect; inconclusive = small, poorly fitted or top-dose-only effect, or another doubt; inactive = no such curve, though single readings can be large or run the other way; also: series mostly up to about 120 µM
Target sequence (P11473 whole entry, looked up): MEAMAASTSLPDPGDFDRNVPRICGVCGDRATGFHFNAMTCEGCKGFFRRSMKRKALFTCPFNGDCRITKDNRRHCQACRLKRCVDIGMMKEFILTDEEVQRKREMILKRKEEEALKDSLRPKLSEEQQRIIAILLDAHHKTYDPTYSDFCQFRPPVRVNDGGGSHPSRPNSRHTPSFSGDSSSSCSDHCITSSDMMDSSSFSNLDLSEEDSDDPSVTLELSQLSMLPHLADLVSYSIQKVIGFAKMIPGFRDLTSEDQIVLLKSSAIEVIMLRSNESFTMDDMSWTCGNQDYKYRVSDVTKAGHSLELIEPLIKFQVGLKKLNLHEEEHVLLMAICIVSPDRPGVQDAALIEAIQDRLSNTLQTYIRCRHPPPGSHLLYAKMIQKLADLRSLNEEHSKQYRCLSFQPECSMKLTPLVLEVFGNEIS
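FP read-out; VDR + SRC2-3 coactivator peptide; 23 nl compound by pintool; 2 h RT incubation; reagents held at 4 deg C, protected from light.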
Numbers without * were called inactive; ? = inconclusive; & = joins results of further samples. % is scaled to controls: 0 for no effect and ±100 for the full control effect; potency is read from the fitted curve at half-maximal effect. The list is partial (hit frequency here may not be typical).

SMILES | VDR inhibitor
CCc1ccccc1NC(=O)CCc1nc(-c2ccc(C)cc2)no1 | -18%
COc1ccccc1NC(=O)c1cnc(SCC(=O)NCCc2ccccc2)n(C)c1=O | -2%
Cc1cn([C@H]2C[C@H](O)[C@@H](COS(=O)(=O)O)O2)c(=O)[nH]c1=O | -9%
Cc1sc2ncn(CC(=O)NCCCC(=O)NCc3ccc(F)cc3)c(=O)c2c1C | 7%
Cc1csc(=O)n1CC(=O)OCC(=O)Nc1ccc(C(N)=O)cc1 | 8%
COc1cccc(CNC(=O)N2CCN(c3ccccc3Cl)CC2)c1 | 10%
N#CCCN(C(=O)c1ccc2c(=O)n3c(nc2c1)CCCCC3)c1ccccc1 | -8%
CCN(Cc1ccccc1)C(=O)c1cc2c(s1)-c1c(C)cccc1OC2 | -3%
CCC(C)NC(=O)c1ccc([N+](=O)[O-])c(Cl)c1 (stereo not drawn) | -15%
Cc1cc[n+](-c2[nH]c(=O)sc2/C=N/N=C(\[O-])c2ccccc2)cc1C | -22%
Cc1ccc(-c2nnc(SCCOc3ccccc3)o2)cc1 | 3%
CC1CCCCC1NCC(=O)Nc1ccccc1C(=O)Nc1ccccc1 (stereo not drawn) | 1%
Cc1nnc(NC(=O)CSc2nc3c([nH]c4ccccc43)c(=O)n2-c2ccc(Cl)cc2)s1 | 5%
COc1ccc(NC(=O)c2ccc3c(c2)OCO3)cc1Cl | 2%
C=CCn1c(-c2ccoc2)n[nH]c1=S | -4%
Cc1cccc(CSc2nnc(-c3ccco3)o2)c1 | -9%
CCN(CC(=O)Nc1ccccc1OC)C(=O)CN1C(=O)NC(C)(c2ccccc2)C1=O (stereo not drawn) | 1%
CCCCN(C)c1nnc(NC(=O)Nc2ccc(Br)c(C)c2)s1 | 0%
O=S1(=O)N=C(N(CCO)/N=C/c2ccccc2F)c2ccccc21 | 2%
C=CCNC(=O)/C(C#N)=C/c1cn(-c2ccccc2)nc1-c1ccc(OC)c([N+](=O)[O-])c1 | 6%
Cc1ccc(N=Cc2cccc(O)c2O)c(C)c1 | 20µM*
CC(=O)NCCn1c(SCC(=O)NCCc2ccc(S(N)(=O)=O)cc2)nc2ccccc2c1=O | -6%
C=CCn1c(CCCOc2ccc(Cl)cc2Cl)nnc1SCC(=O)Nc1nccs1 | -11%
O=C(NCc1cccc(C(F)(F)F)c1)C1CCCN(c2ncccn2)C1 (stereo not drawn) | 10%
CCCCOc1ccc(-c2ncc(N)cn2)cc1 | -4%
COc1ccc(-n2nc3c(N4CCC(C(=O)NCc5ccco5)CC4)nnc(C)c3c2C)cc1 | -10%
CN(C)c1ccc(S(=O)(=O)N2CCCCC2)cc1NC(=O)COc1ccccc1F | 1%
Cc1ccccc1C(=O)Nc1ccc2nc(SCC(=O)N(C)c3ccccc3)sc2c1 | 5%
CC(C)(C)C(=O)COC(=O)c1cccc(NC(=O)c2ccco2)c1 | -2%
CCOCCCN(CC(=O)NC1CCCC1)C(=O)C(=O)Nc1ccc2c(c1)OCCO2 | 10%
N#CCCn1c(=O)c(-c2cc(F)cc(F)c2)nc2cnc(Nc3ccccc3)nc21 | -1%
Cc1cccnc1NC(=O)c1ccc(C(=O)c2ccccc2)cc1 | 1%
O=C(COC(=O)C1CC1)Nc1ccccc1Sc1ccccc1 | 18%
Cc1cc(C)n2nc(SCC(=O)N(C)C)nc2n1 | -2%
Cc1n[nH]c(C)c1S(=O)(=O)N1CCc2ccccc2C1 | 9%
CC(=O)c1c(C)n(-c2cccc(C)c2)c2ccc(OC(=O)COc3ccccc3)cc12 | -17%
COc1ccc(NC(=S)NC(NC(=O)c2cccc(Cl)c2)C(Cl)(Cl)Cl)c([N+](=O)[O-])c1 (stereo not drawn) | 12%
O=C(c1ccccc1)C(Cn1cncn1)C(Sc1ccccc1)c1ccccc1 (stereo not drawn) | -1%
CCCCCCn1c(COc2ccccc2F)nnc1SCC(=O)N1c2ccccc2NC(=O)C1(C)C | 1%
CCOc1ccc2[nH]c(=O)c(CN(CCO)C(=O)CC)cc2c1 | -11%
CSCc1c(C(=O)Nc2ccc3c(c2)OCO3)oc2ccccc12 | 5%
COc1ccc(C2N(c3ccc(OC)cc3)C(=S)N3CCCN23)cc1 (stereo not drawn) | -15%
Cc1cc2nc(C3CCCN(C(=S)Nc4ccccc4C)C3)[nH]c2cc1C (stereo not drawn) | -1%
Cc1ccsc1C1C(C#N)=C(N)Oc2n[nH]c(C)c21 (stereo not drawn) | ?
Nc1nonc1C(=O)N/N=C/c1ccc(-c2ccc(Cl)c(C(=O)O)c2)o1 | -2%
CCc1cccc(CC)c1NC(=O)c1ccc2c(c1)CCN2S(=O)(=O)c1ccccc1 | -6%
CCOC(=O)N1CCC(NC(=O)c2cc(C(=O)NCC(OC)OC)ccc2CO)CC1 | -5%
COc1ccc(S(=O)(=O)N2CCC(C(=O)NCC3CCCO3)CC2)cc1Cl (stereo not drawn) | 6%
CC(=O)c1ccc(NC(=O)N[C@@H](Cc2ccccc2)C(=O)O)cc1 | -14%
COc1ccc(C2/C=C\CN(C(=O)Nc3ccccc3)CC(=O)N2Cc2ccc(F)cc2)cc1 (stereo not drawn) | -4%
Cc1ccc(NC(=O)CSc2ccc3c(c2)OCCO3)c(O)c1 | -16%
Cc1nn(Cc2ccc(F)cc2)c(C)c1NC(=O)c1cnn2c1NC(c1ccccc1)CC2C(F)(F)F (stereo not drawn) | 2%
O=C(Cc1ccccc1)NCc1n[nH]c(=S)n1-c1ccc(Br)cc1 | ?
O=C(c1cc(S(=O)(=O)N2CCOCC2)ccc1F)N1CCN(Cc2ccccc2)CC1 | 6%
Cc1ccc(NC(=O)c2ccc(OC(=O)c3ccco3)cc2)cc1 | -2%
CC(NC(=O)CN1C(=O)COc2ccc(S(=O)(=O)N3CCCCCC3)cc21)c1ccccc1 (stereo not drawn) | -3%
CCC(C)C(=O)OC1CCC=C2C=CC(C)C(CCC3CC(O)CC(=O)O3)[C@@H]21 (stereo partly drawn) | -24%
COCCCn1c(SCC(=O)NC2CCS(=O)(=O)C2)nnc1-c1ccc(Cl)cc1 (stereo not drawn) | -3%
CC(=O)N1CCc2c(sc(NC(=O)CS(=O)(=O)c3ccc(F)cc3)c2C#N)C1 | 13%
COc1ccc(Br)cc1/C=N/NC(=O)c1ccc(COc2ccc3c(c2)CCC3)o1 | -24%
New compounds follow.
SMILES | VDR inhibitor
CCOC(=O)C1(C(=O)OCC)NC(=O)CC1CC(C)C (stereo not drawn) | -20%
O=S(=O)(/C=C/c1ccccc1)N1CCN(Cc2ccccc2)CC1 | 4%
CCn1cc(C(=O)NC(C)C2CC3CCC2C3)cn1 (stereo not drawn) | -1%
O=C(NCc1cccs1)c1cc(S(=O)(=O)N2CCOCC2)ccc1N1CCCC1 | -9%
O=[N+]([O-])c1ccc(N2CCN(c3ccccc3)CC2)nc1 | 28%
Cn1c(N)c(C(=O)Nc2ccccc2)c(=O)[nH]c1=O | 2%
Cc1cccc(N(C(=O)c2snc(C(N)=O)c2N)C(C(=O)NCC2CCCO2)c2cccs2)c1 (stereo not drawn) | -12%
CCOC(=O)CN1C(=O)N[C@@H](c2cccc(F)c2)C(C(C)=O)=C1C | 1%
COc1ccc(Br)cc1CN1CCN(C(=O)c2ccc(F)cc2)CC1 | -15%
CCCCN(CC)C(=O)CSc1nc2c(sc(=S)n2-c2ccc(OCC)cc2)c(=O)[nH]1 | -2%
CCOc1cc(NC(=S)NCCCN2CCOCC2)c(OCC)cc1NC(=O)c1ccccc1C | -3%
Cc1ccccc1N=Cc1c(O)n(-c2nccs2)c(=O)c2ccccc12 | -4%
C=CCn1c(SCC(=O)N2CCCC2)nc2scc(-c3cccs3)c2c1=O | -8%
CC(C)(O)CN(C(=O)C(c1ccccc1)c1ccccc1)C1CCCCC1 | -14%
COc1ccc(S(=O)(=O)N(C)C[C@H]2Oc3ccc(NS(=O)(=O)c4c(C)noc4C)cc3C(=O)N([C@H](C)CO)C[C@@H]2C)cc1 | 2%
Cc1ccc(C(=O)N2CCCC(Nc3ccc(F)cc3)C2)cc1C (stereo not drawn) | 5%
COc1ccc(C(=O)NCCSCc2ccc(C)cc2)cc1 | 13%
CCOC(=O)C(NC(C)=O)(Nc1ccc(S(=O)(=O)Nc2nccs2)cc1)C(F)(F)F (stereo not drawn) | 16%
CC(C)COC(=O)c1ccc2c(c1O)C(=O)c1ccccc1C2=O | 8%
CCOc1ccccc1NC(=O)CN(c1ccc(OC)cc1)S(=O)(=O)c1c(C)noc1C | -5%

Sorted by SMILES length (low to high): 3 of the compounds above.
SMILES | VDR inhibitor
COc1ccc(C(=O)NCCSCc2ccc(C)cc2)cc1 | 13%
CC(C)COC(=O)c1ccc2c(c1O)C(=O)c1ccccc1C2=O | 8%
CCOc1ccccc1NC(=O)CN(c1ccc(OC)cc1)S(=O)(=O)c1c(C)noc1C | -5%

The list goes on.
SMILES | VDR inhibitor
COc1cc2c(cc1OC)CN(Cc1cc(=O)n3c(-c4ccccc4)csc3n1)CC2 | -14%
CC(C)(C)NC(=O)C(c1ccc(F)cc1)N(Cc1ccco1)C(=O)Cn1nnc(-c2cccs2)n1 (stereo not drawn) | 4%
CC(C)CC1NC(=O)N(CC(=O)N2CCN(S(=O)(=O)c3ccc4ccccc4c3)CC2)C1=O (stereo not drawn) | -22%
CCN1CCN(c2ccc(S(=O)(=O)N(CC)CC)cc2[N+](=O)[O-])CC1 | 0%
CCCc1cc(=O)[nH]c(SC/C=C/c2ccccc2)n1 | -16%
CC(=O)COc1ccc2c(c1C)O/C(=C\c1ccco1)C2=O | -11%
O=S(=O)(c1ccc2c(c1)OCCO2)N1CCN(c2nc(-c3cccs3)nc3ccccc23)CC1 | -8%&-11%
Cc1nc(=O)c(-c2ccccc2)c(C)n1Cc1ccccc1 | -3%
O=C(NC1CC(=O)N(c2ccc(F)cc2)C1)c1ccc(S(=O)(=O)N2CCCC2)cc1 (stereo not drawn) | -5%
CC(=O)Oc1c(Cl)c(N2CCOCC2)c(OC(C)=O)c2ccccc12 | -1%
O=C(c1cn(CCOc2ccccc2F)c2ccccc12)C1CCCCC1 | 5%
O=C1CN(C(=O)COc2ccc(Br)cc2Br)c2ccccc2N1 | -7%
Cc1ccccc1S(=O)(=O)N1C[C@H]2CON(C)[C@H]2C[C@H]1c1cccc(-c2ccc(C#N)cc2)c1 | -6%
CCc1ccccc1NC(=O)CN(c1ccc(OC)cc1OC)S(=O)(=O)c1ccccc1[N+](=O)[O-] | 9%
CC(C)CNC(=O)c1ccc2c(c1)C(=O)N(C1CCCCC1)C2=O | -6%
O=C(Cc1ccc(F)cc1)Nc1ccc(Cl)cn1 | -2%
Cc1ccc(OC(=O)CCS(=O)(=O)c2ccc(C)cc2)cc1 | -2%
COc1ccc(-c2[nH]ncc2CN(C)Cc2cnccn2)c(OC)c1 | -1%
O=C(CCNC(=O)c1ccccc1)Nc1ccc(F)c(Cl)c1 | -8%
N#Cc1ccc(OCC(=O)Nc2nc(-c3ccncc3)cs2)cc1 | -6%

5 of the compounds above, with the structure last.
VDR inhibitor,smiles
5%,CSCc1c(C(=O)Nc2ccc3c(c2)OCO3)oc2ccccc12
-15%,COc1ccc(C2N(c3ccc(OC)cc3)C(=S)N3CCCN23)cc1 (stereo not drawn)
-1%,Cc1cc2nc(C3CCCN(C(=S)Nc4ccccc4C)C3)[nH]c2cc1C (stereo not drawn)
?,Cc1ccsc1C1C(C#N)=C(N)Oc2n[nH]c(C)c21 (stereo not drawn)
-2%,Nc1nonc1C(=O)N/N=C/c1ccc(-c2ccc(Cl)c(C(=O)O)c2)o1

(further entries)
SMILES | VDR inhibitor
CCOC(=O)c1ccc(N2C(=O)c3n[nH]c(-c4ccco4)c3C2c2ccccc2OC)cc1 (stereo not drawn) | -20%
O=C(O)C1=NOC(CNc2ncc(C(F)(F)F)cc2Cl)C1 (stereo not drawn) | 21%
Cc1ccc2c(c1)N(C(=O)CCC(=O)NCC(C)c1ccccc1)CC(C)O2 (stereo not drawn) | -2%
Cc1ccnc(N/C=C/C(=O)c2ccc(Br)cc2)c1 | -1%
O=C(N/C(=C/c1ccc(Br)cc1)C(=O)N1CCCC1)c1ccccc1F | 0%
Cc1nnc(N)s1 | -20%
COc1ccccc1N1CCN(/N=C/c2ccc(O)c(O)c2)CC1 | -1%
Cc1c(OCC(=O)NCC(O)c2ccccc2)ccc2c(-c3ccccc3)cc(=O)oc12 (stereo not drawn) | -5%
CCOc1ccc(CNC(=O)c2cc3c(=O)n(Cc4cccs4)ccc3nc2C)cc1 | 5%
CSCCC(NC(=O)c1ccccc1Br)C(=O)NC(C)CCc1ccccc1 (stereo not drawn) | -17%
CN(C)c1ncc(S(=O)(=O)c2ccccc2)c(N)n1 | 3%
Cc1ccc(C(=O)N2CCN(S(=O)(=O)c3sc(C(=O)O)c(C)c3C(=O)O)CC2)s1 | 15%
COc1ccc(N(C)C(=O)c2cc3c(s2)-c2ccc(Cl)cc2S(=O)(=O)C3)c(OC)c1 | 11%
Cn1c(=O)c2c(nc(N/N=C/c3ccncc3)n2Cc2ccccc2)n(C)c1=O | 8%

3 entries already listed, sorted by the value under VDR inhibitor, smallest number first.
SMILES | VDR inhibitor
CCOc1cc(NC(=S)NCCCN2CCOCC2)c(OCC)cc1NC(=O)c1ccccc1C | -3%
Cc1ccc(NC(=O)c2ccc(OC(=O)c3ccco3)cc2)cc1 | -2%
CCCCN(C)c1nnc(NC(=O)Nc2ccc(Br)c(C)c2)s1 | 0%

Assay outcomes deposited in PubChem by National Center for Advancing Translational Sciences (NCATS).
